Compound activity as filed in PubChem.
Beta apoptosis: inhibitors of cytokine-induced beta cell apoptosis, primary screen, luminescence; INS-1E cytokine-induced death, ATP luminescence, 48 h; percent of positive-control rescue, neutral wells zero; protection from apoptosis, % (test concentration not listed); hit rate 0.8% among 300,000; AID 435005, 2010;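 active means all replicates at 75% or more, or half of them and the mean; inconclusive means half reach 75% but not the mean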;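 further: 0% = cytokine-treated negative control wells and 100% = positive control rescue; higher means more ATP so stronger rescue from cytokine killing; wells of about 40 µL received 100 nL stock; the first replicate is given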
A1 inh: caspase 3/7 activation in MEF A1-2A-BIM cells, primary screen, A1 inhibitor project, cell-based, luminescence, HTS. Caspase-Glo 3/7 luminescence, 3 h; percent of clofoctol response, vehicle zero. caspase activation, % (no concentration beside the values). hit rate 0.066% among 330,000. AID 2462, 2010;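 active means over half of replicate activation scores above 10%, or exactly half above 10 with the replicate mean above 10; inconclusive means replicate mean below 10 yet half the replicates above 10; inactive means over half of replicates below 10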;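 further: wells of about 30 µL received 50 nL stock; many hits fall short of the cut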
RanGTP-Impb inh: inhibitors of RanGTP-importin-beta interaction, primary screen, biochemical, FRET, CFP-Ran, YFP-importin-beta, homogeneous; cell-free CFP-Ran/YFP-importin-beta FRET ratio; hit rate 1.1% among 300,000; inhibition, % (no concentration beside the values); Ran GTPase (GTP-bound) - importin-beta complex;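 active means most replicates above 15%; inconclusive means exactly half above 15%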;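 further: 0% = DMSO wells and 100% = Ran loaded with GDP instead of GTP; wells of about 40 µL received 100 nL stock; the first replicate is given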
rRNA inh HTS: reduced GFP signal of wild-type E. coli, primary screen, bacterial rRNA inhibitor project, GFP/RFP fluorescence, OD600, single point | GFP signal change (wild-type ribosome), % (no concentration beside the values) | E. coli WT GFP vs humanized-ribosome RFP mutants, 24 h; active compounds read low; DMSO median 0, no signal -100 | hit rate 1.6% among 350,000;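 active means significant combined selectivity score with lowered wild-type GFP, culture density cut under 30%, mutant RFP and density less affected; inactive means any of these conditions unmet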; further: one replicate is shown; some compounds called inactive have numbers as strong as hits
Vif TR-FRET: inhibitors of Vif binding to APOBEC3G peptide, primary screen, biochemical, TR-FRET, GST-Vif 1-94, biotin-A3G peptide, dose response retest (AID 1117319) | inhibition, %, or IC50 in µM where a hit was titrated | hit rate 0.57% among 260,000 | Virion infectivity factor (Human immunodeficiency virus type 1 group M subtype B (isolate … | TR-FRET GST-Vif / biotin-A3G peptide binding; higher % means a stronger effect; test concentration not given here; strong numbers were not always called active;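 active means above the screen mean plus three standard deviations and confirmed in dose response; inconclusive means results disagree or hit not tested in dose response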;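 further: Vif residues 1-94 fused to GST binding biotinylated APOBEC3G peptide 110-148; 0% = full assay without inhibitor and 100% = GST in place of GST-Vif; retest series ran down from 100 µM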
MLL AF4-AF9 inh: inhibitors of AF4 peptide binding to AF9, primary screen, biochemical, AlphaScreen, biotin-AF4 peptide, FLAG-AF9, single point; Protein AF-9 (Homo sapiens), P42568; inhibition, % at 10 µM; hit rate 0.47% among 350,000; AID 651704, 2012;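 active means every replicate reaching a set inhibition limit, whatever the replicate mean, cut at about 25% in these data; inconclusive means mean inhibition reaches that limit but some replicates miss it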;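 further: 0% = plate neutral control median and 100% = total signal loss; the record names both 10 and 1 µM as test concentration; the first replicate is given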
Target sequence (P42568 whole entry, looked up): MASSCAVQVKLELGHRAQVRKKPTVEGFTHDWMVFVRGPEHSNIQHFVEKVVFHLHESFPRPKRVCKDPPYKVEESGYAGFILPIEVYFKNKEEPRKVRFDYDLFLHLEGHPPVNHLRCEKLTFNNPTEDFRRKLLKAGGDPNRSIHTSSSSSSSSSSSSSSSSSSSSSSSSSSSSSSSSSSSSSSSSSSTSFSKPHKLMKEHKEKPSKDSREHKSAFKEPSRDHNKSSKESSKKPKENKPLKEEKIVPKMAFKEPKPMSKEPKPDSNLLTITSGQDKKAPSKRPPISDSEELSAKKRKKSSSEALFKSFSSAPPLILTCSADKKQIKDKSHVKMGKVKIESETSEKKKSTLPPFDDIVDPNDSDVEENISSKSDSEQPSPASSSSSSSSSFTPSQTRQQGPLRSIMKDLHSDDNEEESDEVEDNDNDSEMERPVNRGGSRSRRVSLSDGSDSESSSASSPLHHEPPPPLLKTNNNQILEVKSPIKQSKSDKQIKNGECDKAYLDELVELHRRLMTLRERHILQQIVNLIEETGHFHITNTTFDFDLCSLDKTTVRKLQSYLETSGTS
T cruzi inh: inhibitors of intracellular T. cruzi growth, primary screen, luminescence, NIH3T3 host cells | inhibition, % (no concentration beside the values) | T. cruzi beta-gal in NIH3T3, 90 h | hit rate 1.4% among 300,000 | AID 1885, 2009;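 active means mean inhibition across valid replicates above about 55%, limit read from the data; inconclusive means mean below that limit but half or more replicates reach it; inactive means mean below it, under half of replicates reach it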;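 further: signal also drops with host cell toxicity which is not excluded here; 0% = plate median of DMSO wells and 100% = zero luminescence signal; higher percent means less beta-gal luminescence so fewer parasites; stock transfer was 50 nL into about 50 µL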
Calb FLC: C. albicans growth inhibition with fluconazole, primary screen, CaCi-2 strain, Alamar Blue fluorescence; C. albicans CaCi-2 (fluconazole-resistant clinical isolate) + fluconazole, 48 h; hit rate 0.57% among 300,000; growth inhibition, % (no concentration beside the values); AID 1979, 2009;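 active means most replicates above 75%; inconclusive means exactly half above 75%; inactive means most below 75%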;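 further: all wells also contain fluconazole at 8 µg/ml as a sub-toxic cotreatment; 0% = median of DMSO wells and 100% = median of geldanamycin control wells; wells of about 8 µL received 7.5 nL stock; the first replicate is given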
rRNA inh HTS OD600: also measured in rRNA inh HTS; calls as there; OD600 change, %; measured here: OD600 growth;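 optical density of the mix in the first replicate; 0 = DMSO median and -100 = no signal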
rRNA inh HTS RFP: second read-out of rRNA inh HTS, no call of its own (marks repeat the call); RFP signal change, %; measured here: RFP humanized mutant strains;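 first replicate; 0 = DMSO median and -100 = no signal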
* = called active by the depositor; ? = inconclusive; . = no result given; & = joins results of further samples. An excerpt. The share of hits here may be higher or lower than overall.

SMILES | Beta apoptosis | A1 inh | RanGTP-Impb inh | rRNA inh HTS | rRNA inh HTS OD600 | rRNA inh HTS RFP | Vif TR-FRET | MLL AF4-AF9 inh | T cruzi inh | Calb FLC
O=C(O)C1CCC(N2C(=O)c3c(Cl)c(Cl)c(Cl)c(Cl)c3C2=O)CC1 (stereo unspecified) | -5.7 | -0.4 | -2.3 | . | . | . | . | . | 3.1 | 1.5
O=C(CSCc1ccccc1)N1CCN(S(=O)(=O)c2cccc(F)c2)CC1 | 2.9 | 2.0 | -0.1 | 4.5 | 23.1 | -2.1 | . | 6.7 | -7.6 | -4.2
OC(CN1CCNCC1)Cn1ccc2ccccc21 (stereo unspecified) | 0.7 | 0.1 | 4.2 | . | . | . | . | . | -8.8 | -7.3
COc1ccc(Cc2nnc(SCC(=O)Nc3ccccc3C)n(N)c2=O)cc1 | -6.7 | 0.2 | 0.6 | 3.2 | 12.9 | -2.2 | . | -2.9 | 4.5 | 0.5
COc1ccccc1OCCSc1nc2ccccc2n1CCC(=O)O | -3.5 | 0.8 | 4.8 | -6.0 | -3.9 | -2.9 | . | -12.9 | -10.0 | -1.7
Nc1nnc(SCc2ccc([N+](=O)[O-])cc2)s1 | -33.2 | -0.7 | 0.2 | 5.1 | 7.9 | 5.5 | -11.4% | 2.3 | -8.3 | -12.0
O=C(COC(=O)CCc1c[nH]c2ccccc12)NCc1ccccc1 | -10.5 | 0.4 | -1.4 | 4.7 | -0.3 | -0.2 | 5.3% | 1.0 | -10.5 | -4.6
CCCn1nnnc1NCc1ccc(N(C)C)cc1 | -2.7 | 0.6 | -0.2 | 2.6 | 7.1 | -0.4 | . | -9.0 | -9.8 | -3.8
CC(=O)N1CCc2cc(Br)cc(S(=O)(=O)NCc3ccc(Cl)cc3)c21 | -2.7 | 0.3 | -2.1 | -8.4 | -8.5 | 5.1 | . | 0.7 | 12.9 | -5.7
O=C(O)C(c1ccccc1)N1CCCCC1 (stereo unspecified) | -5.0 | 1.6 | -1.0 | 12.4 | 11.6 | 1.4 | 3.7% | 0.0 | -5.1 | -3.9
CCOc1ccc(C(=O)Oc2cc(C)[nH]c(=O)c2[N+](=O)[O-])cc1OCC | -4.2 | -0.6 | ? | 2.4 | 0.6 | -3.0 | 1.8% | -2.3 | -11.3 | -3.9
O=C(CSc1nc2ccccc2[nH]1)NCc1ccccc1 | -6.4 | -0.1 | -2.1 | -7.2 | -1.0 | 1.1 | . | 0.4 | -17.6 | 8.6
Cc1ccc2cc(C)c(SCC(=O)NCC3CCCO3)nc2c1 (stereo unspecified) | 2.5 | 0.7 | -1.5 | -7.0 | -33.0 | -8.2 | . | 1.0 | 1.7 | 4.0
CCNC(=S)N/N=C/c1cccc(C)c1 | 2.0 | -2.8 | -2.1 | -13.7* | 6.8* | 0.6* | -5.5% | -7.2 | 15.3 | -21.9
CC(Oc1ccc([N+](=O)[O-])cc1)C(=O)NCC1CCCO1 (stereo unspecified) | -4.4 | 0.2 | 1.9 | 3.5 | 10.7 | 0.8 | -5.0% | -4.8 | -8.9 | -8.0
CCCN(CCC)CCCNC(=O)CN1C(=O)CSc2ccc(S(=O)(=O)N3CCOCC3)cc21 | -13.1 | -0.1 | -1.0 | 11.4 | 9.0 | -4.8 | 9.4% | 0.3 | -8.3 | -4.1
CCCOc1ccc(C2NC(=S)NC(C)=C2C(=O)c2ccccc2)cc1OC (stereo unspecified) | -14.4 | 1.2 | 3.7 | -7.8 | -10.6 | -2.6 | 5.8% | 2.5 | 8.2 | 2.6
O=C(O)CN1C(=O)c2ccc(C(=O)c3ccccc3)cc2C1=O | -2.8 | -0.1 | 1.1 | 4.2 | 6.3 | 0.1 | 9.6% | -2.8 | -3.4 | -1.8
COC(=O)CSc1nnnn1-c1ccccc1 | 1.9 | 0.0 | 0.7 | . | . | . | 0.1% | . | -14.2 | -8.0
CCCSC1=C(C#N)C(c2ccc(Cl)cc2Cl)CC(=O)N1 (stereo unspecified) | 3.9 | 0.2 | -0.8 | . | . | . | 1.7%&-14.1% | . | 11.3 | 15.8
O=C(OCc1c(Cl)cccc1Cl)c1cnccn1 | -5.1 | -1.1 | 2.8 | . | . | . | -0.1% | . | 1.3 | -2.5
CC(=O)c1ccc(N=c2scc(C)n2C(C)C)cc1 | 0.1 | 0.5 | -0.7 | -15.1 | -12.5 | -0.8 | -1.7% | 13.0 | -9.0 | ?
CCOCC(=O)Nc1cccc(-c2nc3cccnc3s2)c1C | 2.3 | 0.7 | -2.8 | -0.6 | 6.3 | 2.8 | -7.4% | 0.7 | 12.7 | 0.8
COC(=O)CNC(=O)C(NC(=O)OCc1ccccc1)C(C)C (stereo unspecified) | -4.3 | -0.6 | -1.7 | 20.4 | 17.1 | 4.5 | 12.2% | 1.1 | 5.6 | -6.0
COc1ccc(OCc2nc(N)nc(Nc3ccccc3OC)n2)cc1 | -10.6 | 1.1 | 4.5 | . | . | . | -8.1% | . | -2.5 | ?
Next part.
SMILES | Beta apoptosis | A1 inh | RanGTP-Impb inh | rRNA inh HTS | rRNA inh HTS OD600 | rRNA inh HTS RFP | Vif TR-FRET | MLL AF4-AF9 inh | T cruzi inh | Calb FLC
COc1ccccc1NC(=S)NC(NC(=O)c1ccco1)C(Cl)(Cl)Cl (stereo unspecified) | 1.9 | 0.1 | -2.5 | -13.1 | -24.0 | 16.9 | . | -1.8 | -38.3 | 10.1
O=C(CSCc1ccc(Cl)cc1)Nc1cccc(C(=O)O)c1 | 0.0 | -1.7 | 1.2 | -3.3 | 2.0 | -4.4 | -2.2% | 0.7 | 0.5 | -0.4
COc1ccc(C(=O)Nc2c(N)nc(SCC(=O)c3ccccc3)[nH]c2=O)cc1 | 2.5 | 0.0 | -2.4 | -29.1 | -15.4 | 14.0 | -9.1% | -1.1 | 3.0 | 26.8
CCCOC(=O)c1ccc(Oc2cn[nH]c2-c2ccc(OCC)cc2O)cc1 | -0.7 | 0.1 | 0.5 | . | . | . | ? | . | -2.9 | 13.0
COc1ccc(OC)c(S(=O)(=O)NCc2ccc(N3CCN(C)CC3)cc2)c1 | -3.1 | -0.9 | 1.6 | -0.1 | 2.4 | -1.5 | . | -2.6 | 9.6 | -13.2
CC(Sc1nc2ccc(Br)cc2[nH]1)C(=O)O (stereo unspecified) | -7.1 | -1.7 | 0.4 | . | . | . | 6.2% | . | -9.8 | -5.6
COc1ccc(S(=O)(=O)N2CCN(c3nc(-c4cccnc4)nc4ccccc34)CC2)cc1 | -0.8 | -0.5 | . | 2.5 | -3.6 | 2.1 | . | -2.5 | . | .
CCOC(=O)COc1ccc(S(=O)(=O)c2ccc(OCC(=O)OCC)cc2)cc1 | -6.1 | -0.6 | -0.8 | 12.1 | 4.3 | 4.2 | 0.5% | 3.7 | 1.3 | 6.1
CCN(CC)C(=O)CSc1nnc(-c2cccnc2)n1CCc1ccccc1 | -3.3 | 0.7 | 1.3 | . | . | . | 4.5% | . | -5.5 | -1.3
Cc1ccc(C2C(C(=O)c3cc4ccccc4o3)=C(O)C(=O)N2CCN2CCOCC2)cc1 (stereo unspecified) | -0.4 | -0.5 | -0.6 | -1.2 | 3.7 | 1.3 | . | 4.1 | 30.4 | 0.6
COc1ccc(OC)c(NC(=O)C(=O)N/N=C/c2ccccc2[N+](=O)[O-])c1 | 0.0 | -0.8 | 3.1 | . | . | . | -5.5% | . | 14.4 | ?
O=C(O)C1C2C=CC(C2)C1C(=O)Nc1cccc(Cl)c1 (stereo unspecified) | 4.9 | -0.7 | -0.2 | 14.4 | 7.1 | 3.1 | -4.8% | -1.3 | 1.6 | -4.2
CC1=C(C(=O)OCc2ccccc2)C(c2cccnc2)n2nnnc2N1 (stereo unspecified) | -6.1 | -0.1 | -0.5 | . | . | . | -1.1% | . | -31.2 | 6.4
O=C(N/N=C/c1ccsc1)c1cc(O)cc(O)c1 | -7.3 | -0.2 | 4.2 | . | . | . | 9.1% | . | -13.7 | 5.5
Cc1cccc(N2C(=O)NC3(CCCCC3)C2=O)c1 | 1.4 | -0.6 | -1.1 | . | . | . | -5.4% | . | -3.7 | -9.8
O=C(Nc1cccnc1Cl)c1cc(-c2cccc(Cl)c2)on1 | -1.4 | 0.1 | 0.2 | 1.1 | 2.6 | -4.5 | . | -0.7 | 3.1 | 0.1
COc1ccccc1Cc1nc(-c2ccc(Br)o2)no1 | 3.0 | -0.2 | 0.9 | -3.5 | -24.7 | -3.5 | 0.4% | -3.0 | -11.3 | 12.8
COC(=O)CC1=C(C(=O)OC)C(c2cccs2)C(C#N)=C(N)O1 (stereo unspecified) | -7.4 | -0.5 | -3.6 | . | . | . | -0.2% | . | -6.9 | -6.0
O=C(c1cc2nc(C3CC3)cc(C(F)F)n2n1)N1CCOCC1 | -0.9 | -0.3 | -0.5 | . | . | . | 23.7% | . | 7.5 | 3.1
CCCCCCCN1C(N(C)C)=NC[C@@H]1Cc1ccccc1 | 2.3 | -1.5 | . | -13.9 | -27.4 | 16.1 | . | 2.9 | . | .
Cc1nn(C)cc1S(=O)(=O)N1CCN(c2ccccc2F)CC1 | -4.7 | 0.2 | -1.1 | 16.3 | 5.5 | 0.6 | -3.5% | -1.8 | -3.6 | -2.8
Cc1nc2cc(Cl)c(Cl)cc2n1-c1ccccn1 | 3.5 | -0.6 | 3.1 | -1.7 | -12.5 | -1.4 | . | -24.0 | -10.1 | 14.8
CCOC(=O)c1c(C)nc(-c2ccccc2)nc1NC(=O)C(C)C | 5.1 | -1.5 | 0.8 | . | . | . | -1.1% | . | 15.2 | -3.0
O=C(N/N=C/c1ccc2c(c1)OCO2)c1ccc(Cn2cc([N+](=O)[O-])cn2)o1 | 0.1 | -1.6 | -3.4 | 3.2 | 11.6 | -1.7 | -4.5% | 3.5 | 19.7 | -1.7
COc1ccc(-c2noc(CCC(=O)NC3CCCCCC3)n2)cc1 | . | 0.0 | -2.0 | -17.7 | -17.0 | 2.3 | 0.0% | 1.2 | 4.3 | -3.8
CN(C)c1ccc(C(=O)Nc2cccc(S(=O)(=O)NC3=NCCCCC3)c2)cc1 | -2.5 | -0.4 | . | -1.7 | 4.5 | -0.2 | . | -0.2 | . | .
CC(c1ccccc1)N1C(=O)NC(NC(=O)C(C)(C)C)(C(F)(F)F)C1=O (stereo unspecified) | . | 1.3 | -4.5 | . | . | . | . | . | -7.0 | 0.8
CN(C(=O)COC(=O)C12CC3CC(CC(C3)C1)C2)c1c(N)n(Cc2ccccc2)c(=O)[nH]c1=O | -0.3 | -0.3 | . | -1.8 | 12.0 | -4.1 | 5.7% | -1.4 | . | .
